# Source: PubChem BioAssay
# KCNQ2 pot – potentiators of rat KCNQ2 potassium channel; CHO-K1 KCNQ2, FluxOR thallium flux fluorescence; stronger effect = higher value; Potassium voltage-gated channel subfamily KQT member 2 (Rattus norvegicus), O88943; 310,000 compounds, 0.54% hits; B-score at 10 µM; AID 2239, 2010;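 active = fluorescence ratio B-score at least 3 SD of library B-scores, with initial fluorescence B-score within 3 SD, cut at about 5.3 in these data; same plate scores as AID 2156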;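 also: B-score of peak minus minimum over baseline fluorescence ratio after K+ and Tl+ stimulus; positive B-score means potentiation of KCNQ2 with more thallium influx and brighter signal; only the inactives scoring about 0 or higher are listed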
# Target sequence (O88943 whole entry, looked up): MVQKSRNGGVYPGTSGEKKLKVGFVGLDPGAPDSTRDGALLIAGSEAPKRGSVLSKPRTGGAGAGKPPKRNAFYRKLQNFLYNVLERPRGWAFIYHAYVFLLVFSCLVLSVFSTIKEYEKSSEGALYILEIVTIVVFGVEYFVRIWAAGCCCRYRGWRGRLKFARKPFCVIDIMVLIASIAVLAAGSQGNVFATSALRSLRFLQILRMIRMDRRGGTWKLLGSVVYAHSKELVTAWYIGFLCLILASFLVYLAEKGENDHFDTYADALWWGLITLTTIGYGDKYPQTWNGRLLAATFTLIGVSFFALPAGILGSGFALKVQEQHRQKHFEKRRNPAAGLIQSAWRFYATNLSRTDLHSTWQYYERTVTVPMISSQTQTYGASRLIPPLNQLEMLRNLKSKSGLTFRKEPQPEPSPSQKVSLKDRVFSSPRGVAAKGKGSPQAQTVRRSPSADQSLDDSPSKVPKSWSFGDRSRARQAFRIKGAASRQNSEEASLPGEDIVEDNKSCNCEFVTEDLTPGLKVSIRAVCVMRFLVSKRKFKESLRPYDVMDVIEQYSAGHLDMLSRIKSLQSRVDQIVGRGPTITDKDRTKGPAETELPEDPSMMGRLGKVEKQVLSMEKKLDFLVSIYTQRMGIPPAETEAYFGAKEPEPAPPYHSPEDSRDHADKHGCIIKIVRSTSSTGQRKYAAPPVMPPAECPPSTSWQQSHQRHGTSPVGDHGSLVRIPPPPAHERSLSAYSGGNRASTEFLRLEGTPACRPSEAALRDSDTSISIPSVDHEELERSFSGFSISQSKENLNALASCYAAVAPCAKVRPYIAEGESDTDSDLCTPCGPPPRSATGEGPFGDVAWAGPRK
# KCNQ2 pot baseline – also measured in KCNQ2 pot; calls as there; B-score; compound at 10 µM; measured here: initial fluorescence intensity artifact check;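 brightness before thallium and not channel activity; 0 = typical well and far values either way flag optical interference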
# * marks the source's active call; other numbers are inactive results.
# Values run as follows: KCNQ2 pot, KCNQ2 pot baseline
- O=C(CSc1nnc(-c2cccc(S(=O)(=O)N3CCOCC3)c2)n1C1CCCCCC1)NCc1ccccc1
→ 0.02, 1.87
- Cc1ccc(N2C(N)=NC(N)=NC2(C)C)c(C)c1
→ 1.32, -0.56
- O=C(c1ccccn1)C1CCCN(Cc2nc(Cc3cccc(F)c3)no2)C1 (stereo not drawn)
→ 0.36, -0.42
- CCOC(=O)CCC(=O)Nc1cccc([N+](=O)[O-])c1
→ 0.93, -0.24
- CCOC(=O)c1c(NC(=O)COC(=O)Cn2cnc3ccccc32)sc(C)c1C
→ 2.45, -0.18
- CCN1C(=O)/C(=C2\SC(N3CCOCC3)=NC2=O)c2ccccc21
→ 1.43, 0.79
- COC(=O)Cn1cc(/C=C(/C#N)C(=O)N2CCOCC2)c2ccccc21
→ 0.16, -0.46
- CCC(=O)NC(=S)Nc1ccc(NC(=O)c2ccc(OC)cc2)cc1
→ 0.04, -0.25
- Cc1ccc2nc(-c3cccs3)oc(=O)c2c1
→ 0.19, -1.01
- COc1ccc(N2CCN(C(=S)NCc3ccccc3)CC2)cc1
→ 1.19, 2.05
- CCCCNC(=O)CC1S/C(=N/N=C/c2ccc(OC)cc2)NC1=O (stereo not drawn)
→ 0.1, 0.16
- COc1ccc(-c2csc3nc(-c4cccnc4)nc(N4CCC(C(N)=O)CC4)c23)cc1OC
→ 0.87, -0.76
- S=C(NCC1CCCO1)N1CCN(Cc2ccccc2Cl)CC1 (stereo not drawn)
→ 0.09, -0.03
- C=CCn1cc(CN2CCC(C(=O)Nc3ccc(Oc4cccnc4)cc3)CC2)c(C)n1
→ 2.51, -1.26
- COc1ccccc1N1CCN(S(=O)(=O)CCNC(=O)C2CC(=O)N(c3ccccc3)C2)CC1 (stereo not drawn)
→ 2.69, 0.62
- CC1CCN(C(=O)CCNS(=O)(=O)c2ccccc2)CC1
→ 0.15, 0.2
- CC(=O)Nc1ccc(NC(=O)c2ccccc2CC[N+](=O)[O-])cc1
→ 2.23, 0.16
- CCOCCOC(=O)C(C)Oc1ccc(Oc2nc(Cl)ccc2Cl)cc1 (stereo not drawn)
→ 0.15, -0.79
- Cc1ccc(S(=O)(=O)CC(=O)Nc2cc(C)on2)cc1
→ 1.81, -0.28
- Cc1ccccc1OCC(=O)Nc1nnc(-c2ccncc2)s1
→ 0.21, -0.29
- Cc1ccc(S(=O)(=O)N(C)C)cc1NC(=S)NC1CCCC(C)C1C (stereo not drawn)
→ 0.39, 0.29
- O=C(O)c1ccc2c(c1)C(=O)N(c1cccc(-c3nc4ccccc4s3)c1)C2=O
→ 0.54, 2.43
- S=C(Nc1ccccc1)c1ccccn1
→ 5.04, 1.25
- Cc1nc(-c2c(-c3ccc(O)cc3O)noc2C(F)(F)F)cs1
→ 1.87, -1.09
- COc1ccc(NC(=O)C2CCN(C(=O)Cc3ccccc3)CC2)c(OC)c1
→ 1.32, 0.42
- COc1ccc(OC)c(CN2CCN(CCc3ccccc3)C(CCO)C2)c1 (stereo not drawn)
→ 0.03, 1.46
- Cc1ccc(NC(=S)NCc2ccco2)c(C)c1
→ 1.81, -0.94
- CNS(=O)(=O)c1cccc(C(=O)OCC(=O)Nc2ccccc2F)c1
→ 0.95, 0.08
- CC(=O)c1sc2nc(=O)c(C)nn2c1C
→ 0.38, -0.7
- Cc1c(CCC(=O)N[C@@H](CCCNC(N)=O)C(=O)O)c(=O)oc2cc3oc4c(c3cc12)CCCC4
→ 1.08, 0.09

# 3 entries already listed, sorted by their value in KCNQ2 pot, lowest first.
# Values run as follows: KCNQ2 pot, KCNQ2 pot baseline
- CCCCNC(=O)CC1S/C(=N/N=C/c2ccc(OC)cc2)NC1=O (stereo not drawn)
→ 0.1, 0.16
- Cc1ccccc1OCC(=O)Nc1nnc(-c2ccncc2)s1
→ 0.21, -0.29
- CCOC(=O)CCC(=O)Nc1cccc([N+](=O)[O-])c1
→ 0.93, -0.24

# Random excerpt: two records from the list
# Values run as follows: KCNQ2 pot, KCNQ2 pot baseline
- Cc1ccc(S(=O)(=O)N(C)C)cc1NC(=S)NC1CCCC(C)C1C (stereo not drawn)
→ 0.39, 0.29
- Cc1ccc(S(=O)(=O)CC(=O)Nc2cc(C)on2)cc1
→ 1.81, -0.28

# Continued.
# Values run as follows: KCNQ2 pot, KCNQ2 pot baseline
- CCOc1ccc(CCNC(=O)CN(C)S(=O)(=O)c2cccs2)cc1OCC
→ 0.52, -1.42
- Cc1cccc(NC(=O)C2CCN(S(=O)(=O)c3ccc4c(c3)OCCCO4)CC2)n1
→ 0.02, 0.43
- COc1ccc(C2C(C(=O)Nc3cccnc3)=C(C)Nc3nc(-c4ccco4)nn32)cc1 (stereo not drawn)
→ 1.22, -0.27
- CCOC(=O)Nc1sc2nc(C)cc(C)c2c1-n1cccc1
→ 1.43, -1.52
- Cc1ccc(OCCNC(=O)CCNS(=O)(=O)c2ccc(C)cc2)cc1
→ 0.9, 0.32
- CN1CCN(C(=O)CCc2nnc3ccc(N4CCC5(CC4)OCCO5)nn23)CC1
→ 0.82, 0.22
- CC(=O)Oc1cccc(N2C(=O)C3CC=C(Cl)CC3C2=O)c1 (stereo not drawn)
→ 1.79, 0
- COc1ccc(C(c2sc3ncnn3c2O)N2CCN(c3ccccc3F)CC2)cc1OC (stereo not drawn)
→ 1.19, 1.22
- COc1ccc(OC)c(N2C(N)=NC(N)=NC23CCCC3)c1
→ 0.98, -1.16
- Fc1ccccc1N1CCN(c2cnc3ccccc3n2)CC1
→ 0.52, 0.25
- O=C(Cc1ccc(Cl)cc1)Nc1ccc2oc(-c3ccncc3)nc2c1
→ 0.37, -1.24
- CC(C)[C@H](NC(=O)N1CCn2c1nc1ccccc12)C(=O)N[C@H](C(=O)O)c1ccccc1
→ 0.99, -0.83
- Cc1cc(-c2nnc(SCC(=O)Nc3ccccc3C(F)(F)F)o2)c(C)n1-c1ccccc1
→ 0.83, 0.35
- Cc1cc(Nc2ccccc2O)c2ccccc2n1
→ 0.11, 1.2
- CC1CCCCN1C(=O)COC(=O)c1cc([N+](=O)[O-])ccc1N (stereo not drawn)
→ 1.35, -1.73
- O=C(c1ccc(COc2ccc(Cl)cc2)cc1)N1CCCCC1
→ 0.07, 0.33
- O=C(COC(=O)Cn1cnc2ccccc21)NCCc1ccc(Cl)cc1
→ 0.67, 1.6
- O=C(COC(=O)C12CC3CC(CC(C3)C1)C2)Nc1nccs1
→ 0.66, -2.37
- CC(C)c1nc(SCC(=O)N2CCOCC2)c2c(=O)n(C)c(=O)n(C)c2n1
→ 1.84, -0.78
- NC(=O)c1nnsc1Sc1c(C(N)=O)nnn1-c1cccc(N)c1
→ 0.43, -0.99
- CC1(c2ccccc2Cl)NC(=O)N(CC(=O)c2ccc3c(c2)OCO3)C1=O (stereo not drawn)
→ 0.07, 1.43
- COc1cccc(COCC(O)Cn2cnc3cc(C)c(C)cc32)c1 (stereo not drawn)
→ 0.34, -0.16
- COc1ccc2cc(C3c4cc(OC)c(OC)cc4CCN3C(=O)c3ccco3)c(=O)[nH]c2c1 (stereo not drawn)
→ 0.11, 0.27
- c1ccc2c(N3CCOCC3)nc(N3CCOCC3)nc2c1
→ 1.21, -1.95
- O=C1c2ccccc2C(=O)N1CCSc1n[nH]c(=S)s1
→ 2.63, 0.59
- Oc1ccc(Cl)cc1CNn1cnnc1
→ 0.67, -2.39
- CCN(CC)S(=O)(=O)c1ccc(C(=O)Nc2ncn(Cc3ccccc3)n2)cc1
→ 0.1, 0.02
- COc1cccc(CNS(=O)(=O)c2ccc3c(c2)CC(C)N3C(C)=O)c1 (stereo not drawn)
→ 0.62, -0.41
- Cc1cc(=O)oc2cc(OCc3ccc(C(=O)OCC(=O)Nc4ccccc4OC(F)F)cc3)ccc12
→ 0.56, 0.19
- O=C(Nc1ccc2c(c1)CCCN2C(=O)c1cccs1)c1c(F)cccc1F
→ 1.28, -1.41
- O=Cc1c(-[n+]2ccccc2)nc([O-])n1-c1ccccc1
→ 0.49, 1.66
- COCCn1nnnc1C(c1ccccc1)N1CCN(C)CC1 (stereo not drawn)
→ 0.37, 0.19
- CCCCc1nc2sc3c(c2c(=O)[nH]1)CCC3
→ 0.87, 0.26
- COc1ccc(/C=N/NC(=O)c2nn(C)cc2Br)cc1CSCc1ccco1
→ 0.92, -2.67
- CCn1cnc2cc(NCc3ccc(C)cc3)ccc21
→ 0.11, -0.2
- CCOC(=O)C1CN(S(=O)(=O)c2ccc(F)cc2)C1
→ 0.64, -1.15
- COc1ccc(OC)c(N2C(=NC(=O)C3CCCCC3)SC3CS(=O)(=O)CC32)c1 (stereo not drawn)
→ 1.6, 0.22
- CN(Cc1cnn(-c2ccccc2)c1)C(=O)C1CCC(=O)N(C2CC2)C1 (stereo not drawn)
→ 0.83, 0.11
- Cc1ccccc1S(=O)Cc1ccc(C(=O)NC2CC2)o1 (stereo not drawn)
→ 0.55, 2.43
- CC(=O)c1cc(-c2ccccc2)n(CC(=O)Nc2cccc(C)c2)c1C
→ 0.02, 0.18
- COc1ccccc1NC(=O)C1=C(C)NC(=O)NC1c1cccs1 (stereo not drawn)
→ 2.26, -1.13
- COCCCn1cc(C(=O)c2ccccc2OCC(=O)Nc2cccc(F)c2)cc(C#N)c1=O
→ 0.31, -0.21
- C[C@H](NC(=O)N1CCn2c1nc1ccccc12)C(=O)NCC1CCCO1 (stereo partly drawn)
→ 1.2, 0.12
- Cc1cccc(NC(=O)CS(=O)(=O)c2c[nH]c3ccccc23)c1C
→ 0.97, -0.26
- Clc1ccc(-c2nnc(-c3ccco3)o2)cc1
→ 1.24, 2.48
- CCOc1ccc2[nH]c(=O)c(CN(CC3COCCO3)C(=O)c3ccc(C)cc3)cc2c1 (stereo not drawn)
→ 0.44, 0.38
- O=C(NCc1ccc(-c2nc3ccccc3s2)cc1)c1ccco1
→ 0.3, -0.44
- COC(=O)COc1ccc2c(c1)O/C(=C\c1cccc([N+](=O)[O-])c1)C2=O
→ 2.48, -0.15
- CCn1c(C(=O)N2CCCC(C(=O)O)C2)cc2sccc21 (stereo not drawn)
→ 0.84, 0.62
- CSC1=C(C#N)C2(CCCC2)C(C#N)=C(N)N1
→ 1.41, 0.71
- CCOC(=O)N1CCN(CCC(=O)Nc2ccc(C)c(Br)c2)CC1
→ 0.57, -1.88
- COc1ccc(NC(=O)CN2C(=O)C(C)Oc3ccccc32)c(OC)c1 (stereo not drawn)
→ 1.46, 0.01
- COc1ccc(NC(=O)Nc2cccc3ccccc23)cc1S(N)(=O)=O
→ 1.25, 0.12
- S=C(Nc1ccccc1)N1CCOCCOCCN(C(=S)Nc2ccccc2)CCOCCOCC1
→ 0.16, 1.52
- O=C(NC1CC(=O)N(c2ccccc2)C1)N1CCN(C(=O)c2ccco2)CC1 (stereo not drawn)
→ 0.01, 0.39
- O=C(Nc1ccc(Cl)cc1)C1CCCN(S(=O)(=O)c2cnc[nH]2)C1 (stereo not drawn)
→ 0.95, 0.1
- COC(=O)C1CCN(C(=O)Cc2ccc(Br)cc2)CC1
→ 0.95, -2
- O=C(CCC(=O)c1ccc(F)cc1)OC1CCOC1=O (stereo not drawn)
→ 0.24, -1.89
- Cc1cc(C)n(C(=O)c2ccc(NC(=O)C3COc4ccccc4O3)cc2)n1 (stereo not drawn)
→ 1.05, -0.9
- O=[N+]([O-])c1cccc(/C=N/Nc2nccnc2Cl)c1
→ 1.95, 0.47

# Continuation.
# Values run as follows: KCNQ2 pot, KCNQ2 pot baseline
- CCCN1CN(Cc2ccccc2)CNC1=S
→ 0.02, 1.95
- COCCCN1C(=O)C(=O)/C(=C(/O)c2ccc(C)cc2)C1c1ccccc1 (stereo not drawn)
→ 0.51, -0.02
- CCCOc1ccc(CN(CCO)CCO)cc1C(=O)OC
→ 2.26, 0.7
- COC(=O)NCc1ccc(CNC(=O)OC)cc1
→ 0.86, 0.57
- CC(C)c1cc(C(=O)N/N=C/c2c[nH]c3ccccc23)n[nH]1
→ 0.5, -1.02
- O=C(CCn1c(=O)[nH]c2ccccc2c1=O)N1CCN(c2ccc(Cl)cc2)CC1
→ 1.34, -0.92
- CC(C)C[C@@H](CO)N1CCN(CC(C)C)CCC1=O
→ 0.79, 1.6
- COc1ccc(CCn2c(NCc3ccco3)nc3c2c(=O)[nH]c(=O)n3C)cc1
→ 0.1, 0.81
- Cc1ccc(C(=O)NCCc2nnc3ccc(SCC(=O)Nc4c(C)cc(C)cc4C)nn23)cc1
→ 1.45, -1.93
- COc1ccc(CCNC(=O)[C@@H](NC(=O)N2CCn3c2nc2ccccc23)C(C)C)cc1OC
→ 0.06, -0.03
- CCSc1nc(O)cc(=O)n1-c1ccc(OC)cc1
→ 0.25, -1.31
- CCCCN1C(=O)C(=O)NC[C@@H]1CCCCN
→ 0.45, 1.14
- O=C(NCc1ccccn1)c1cccc(NS(=O)(=O)c2ccccc2F)c1
→ 1.48, 0.1
- N#Cc1ccc(OCC(=O)Nc2ccncc2)cc1
→ 0.9, 0.08
- Cc1onc(-c2c(Cl)cccc2Cl)c1C(=O)N1CCN(Cc2ccccc2)CC1
→ 0.55, -0.42
- CCOC(=O)c1n[nH]n2c1nc(=O)c1ccccc12
→ 0.07, 0.1
- COc1ccc(C(=O)NCc2oc(-c3ccccc3)cc2C(=O)O)cc1
→ 0.59, 3.19
- COc1ccc(CCNC(=O)C2CCCN(S(=O)(=O)c3cnc[nH]3)C2)cc1OC (stereo not drawn)
→ 0.5, -2.97
- COc1ccc(-c2noc(CSc3nc(-c4ccccc4)cc(=O)[nH]3)n2)cc1OC
→ 0.15, -1.28
- O=C(COC(=O)C1CCN(S(=O)(=O)c2ccc(Cl)c(C(F)(F)F)c2)CC1)NCc1ccco1
→ 1.23, 0.07
- COc1ccccc1NC(=S)NCc1ccccn1
→ 1.5, -0.44
- Cc1ccc(-c2noc(=O)n2CC(=O)c2ccc(Cl)cc2)cc1
→ 0.25, -0.02
- Fc1ccc(Nc2nnc(C(F)(F)F)s2)cc1Cl
→ 7.2*, 0.92*
- O=C(/C=C/c1ccc(OC(F)F)cc1)Nc1cccc(S(=O)(=O)NC2=NCCCCC2)c1
→ 1.18, -0.94

# A portion of the library, so the mix of outcomes need not match the whole.
